Bioassay records: PubChem BioAssay, National Center for Advancing Translational Sciences (NCATS)
NS1 function inh – inhibitors of influenza NS1 protein function; hit rate 0.4% among 270,000; S. cerevisiae slowed by influenza A NS1, growth recovery by OD600; AID 2326; Potency, µM (doses to about 46.1 µM), for inactives: at the highest dose activity, positive = more growth; also: actives are rising curves; nearly all actives have a fitted effect of over 50% in size
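Read-out: OD600 growth recovery of NS1-expressing budding yeast. Cells grown overnight at 30C in -URA glucose medium, washed, resuspended and diluted 1:100 in 2% galactose assay medium, pH 6.0. Same strain lacking NS1 served as positive control.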
SARS PLP yeast – SARS-CoV PLP inhibition in yeast; Potency, µM (titrated, usually from 32.9 µM), for inactives: at the highest dose activity, positive = growth rescue; S. cerevisiae expressing SARS-CoV PLpro, growth rescue; control for the full effect not named in the record; AID 485353; hit rate 0.19% among 330,000; also: 0% is about no effect; nearly all actives have a fitted effect of over 55% in size; growth read by luminescence after 48 h
Lassa entry inh – blocks Lassa virus binding to or entry into cells. hit rate 1.2% among 300,000. Potency, µM (top dose mostly 37.9 µM), for inactives: at the top dose activity change, negative = inhibition, hits mostly inhibitors. Lassa virus pseudotype entry inhibition, cell reporter; control for the full effect not named in the record; active means well fitted inhibition curve with a large enough effect; inconclusive means small, poorly fitted or top-dose-only effect, or effect the other way; inactive means flat fitted curve, though single readings scatter; tested in HEK293 cells; also: % is scaled to controls: 0 for no effect and ±100 for the full control effect; nearly all actives have a fitted effect of over 50% in size; luciferase read-out
Marburg entry inh – inhibitors of Marburg virus binding or cell entry; Marburg virus pseudotyped entry inhibition, cell reporter; control for the full effect not named in the record; about a third of the inactives were read at about 46 µM; Potency, µM (top dose mostly 37.8 µM), for inactives: at the top dose activity change, negative = inhibition, most hits filed as inhibitors; hit rate 1.8% among 300,000; active = well fitted inhibition curve with a large enough effect; inconclusive = small, poorly fitted or top-dose-only effect, or effect the other way; inactive = flat fitted curve, though single readings scatter; tested in HEK293 cells; about a fifth of its hits are not listed in these tables; also: % is scaled to controls: 0 for no effect and ±100 for the full control effect; luciferase read-out
RE007 growth inh – less growth of the S. pombe RE007 Vpr strain. S. pombe RE007 Vpr strain, BacTiter-Glo ATP luminescence, 24 h; control for the full effect not named in the record. Potency, µM (doses to about 92.2 µM), for the others: top-dose activity change, negative = less growth. hit rate 0.21% among 360,000. AID 651644; active = well fitted falling curve with a large enough effect; inconclusive = small, poorly fitted or top-dose-only effect; inactive = no such curve, though single readings can be large or run the other way;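 also: % is scaled to controls: 0 for no effect and ±100 for the full control effect; nearly all actives have a fitted effect of over 50% in size; the assay follows cell death caused by Vpr and the record does not say whether a fall means rescue or toxicity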
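Fission yeast strain RE007, carrying one chromosomally integrated HIV-1 vpr copy, was seeded at OD 0.01 in PMG+AL medium with 23 nL pinned compound. After 24 h at 30 °C and 99% humidity, viability was read by BacTiter-Glo luminescence.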
StopGo reporter – lowers the luciferase signal of an FMDV 2A StopGo reporter; human cells with a luciferase reporter of 2A StopGo recoding; control for the full effect not named in the record; Potency, µM (series often up to 57.9 µM), for inactives: at the highest dose signal change, negative = less light; hit rate 1.2% among 410,000; active = well fitted falling curve with a large enough effect; inconclusive = small, poorly fitted or top-dose-only effect; inactive = no such curve, though single readings can be large or run the other way; tested in HEK293T cells; also: % is scaled to controls: 0 for no effect and ±100 for the full control effect; nearly all actives have a fitted effect of over 45% in size; luciferase light after 4 h
Cruzain inh noDet – cruzain (T. cruzi) inhibition without detergent | AID 1476 | hit rate 2.3% among 200,000 | Potency, µM, without a hit: max response, negative = inhibition, hits mostly inhibitors | P25779 | purified cruzain, Z-FR-AMC fluorescence, no detergent; active = well fitted curve in the direction sought with a large enough effect; inconclusive = small, poorly fitted or top-dose-only effect, or another doubt; inactive = no such curve, though single readings can be large; an effect the other way counts as inactive or inconclusive;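 also: plate controls were enzyme without inhibitor for no effect and buffer without enzyme for full effect; nearly all actives have a fitted effect of over 40% in size; top concentration of the series not given in the record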
Target sequence (P25779 123-467 limits assumed): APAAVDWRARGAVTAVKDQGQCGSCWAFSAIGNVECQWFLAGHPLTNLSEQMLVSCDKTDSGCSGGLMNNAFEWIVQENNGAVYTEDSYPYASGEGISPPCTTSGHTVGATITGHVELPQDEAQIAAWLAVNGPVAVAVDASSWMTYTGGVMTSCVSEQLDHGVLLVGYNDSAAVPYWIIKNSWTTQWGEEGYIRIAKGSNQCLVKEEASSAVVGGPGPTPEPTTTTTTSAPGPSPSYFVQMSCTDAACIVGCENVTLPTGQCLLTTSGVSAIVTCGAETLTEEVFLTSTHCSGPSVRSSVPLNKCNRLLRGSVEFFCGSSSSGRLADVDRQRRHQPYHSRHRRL
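Purified cruzain at 1.5 nM, pre-incubated 15 min with compound at room temperature in 100 mM sodium acetate pH 5.5, 5 mM DTT, 0.00005% Triton X-100. Reaction started with 2 uM Z-FR-AMC; AMC fluorescence increase over 60 s gives rate.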
Cruzain Triton – blocks cruzain activity in presence of Triton detergent; purified cruzain, Z-FR-AMC fluorescence, 0.01% Triton; AID 1478; Potency, µM, for inactives: max response, negative = inhibition, actives largely listed as inhibitors; hit rate 0.43% among 200,000; active = well fitted curve in the direction sought with a large enough effect; inconclusive = small, poorly fitted or top-dose-only effect, or another doubt; inactive = no such curve, though single readings can be large; an effect the other way counts as inactive or inconclusive;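 also: plate controls were neutral wells for no effect and buffer without enzyme for full effect; nearly all actives have a fitted effect of over 40% in size; top concentration of the series not given in the record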
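Cruzain (1.5 nM) preincubated 15 min at RT with compound in 100 mM sodium acetate pH 5.5, 5 mM DTT, 0.01% Triton X-100. Reaction started with 2 uM Z-FR-AMC; AMC fluorescence (ex 360/em 450 nm) change over 60 s gave rate.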
Starred values were filed as active, the others as inactive; ? = inconclusive; / = no result given; & = joins results of further samples; ! = a repeat was not active; [ ] = remark or other dose. Unless noted, calls follow the shape of the dose curve; as a rule, active means well fitted rising curve with a large enough effect; inconclusive means small, poorly fitted or top-dose-only effect; inactive means no such curve, though single readings can be large or run the other way. Potency is read from the fitted curve at half-maximal effect.

Start of the data: the first five compounds (preview)
SMILES | NS1 function inh | SARS PLP yeast | Lassa entry inh | Marburg entry inh | RE007 growth inh | StopGo reporter | Cruzain inh noDet | Cruzain Triton
O=C(/C=C/c1cccc(O)c1)c1ccc(N2CCOCC2)cc1 | -6% | -1% | / | / | -17% | 18% | / | /
COc1c(S(=O)(=O)Nc2cccnc2)ccc(Cl)c1Cl | 0% | 1% | 2% | -24%[46.1 µM] | -7% | 23% | / | /
CCOc1ccccc1Nc1sc(C(=O)c2ccccc2)c(N)c1S(=O)(=O)c1ccc(C)cc1 | / | / | -16%[46.1 µM] | / | / | -16% | ? | 2.2%
Cc1cc(C(=O)Nc2ncc(C)s2)c2ccccc2n1 | / | 1% | -10% | ? | 1% | 5% | / | /
Cc1ccc(CNC(=O)C(=O)NCCC2CCCCN2S(=O)(=O)c2ccc(C)cc2)cc1 (configuration not stated) | / | 2% | ? | ? | 4% | -29% | / | /

The list itself, repeating the preview:
SMILES | NS1 function inh | SARS PLP yeast | Lassa entry inh | Marburg entry inh | RE007 growth inh | StopGo reporter | Cruzain inh noDet | Cruzain Triton
O=C(/C=C/c1cccc(O)c1)c1ccc(N2CCOCC2)cc1 | -6% | -1% | / | / | -17% | 18% | / | /
COc1c(S(=O)(=O)Nc2cccnc2)ccc(Cl)c1Cl | 0% | 1% | 2% | -24%[46.1 µM] | -7% | 23% | / | /
CCOc1ccccc1Nc1sc(C(=O)c2ccccc2)c(N)c1S(=O)(=O)c1ccc(C)cc1 | / | / | -16%[46.1 µM] | / | / | -16% | ? | 2.2%
Cc1cc(C(=O)Nc2ncc(C)s2)c2ccccc2n1 | / | 1% | -10% | ? | 1% | 5% | / | /
Cc1ccc(CNC(=O)C(=O)NCCC2CCCCN2S(=O)(=O)c2ccc(C)cc2)cc1 (configuration not stated) | / | 2% | ? | ? | 4% | -29% | / | /
CCCCCc1ccc(OCCCC[n+]2cccc(C)c2)c(CCCCC)c1 | 1% | 0% | ? | ? | ? | ? | / | /
CCN1C(=O)[C@@H]2Cc3c([nH]c4ccccc34)C(c3cc(OC)c(OC)c(OC)c3)N2C1=S (some centres not stated) | 3% | -1% | / | / | 2% | -7% | / | /
CCc1nc(SCC(=O)OC(C)C)c2ccccc2n1 | -7% | -1% | 5% | -2%[46.1 µM] | 29% | -17% | / | /
N#Cc1cc(Oc2ccccc2)c(-n2nnc3ccccc32)cc1C#N | 5% | -15% | -7% | -6% | -8% | -5% | -8% | -11%
COc1ccccc1-n1c(C)cc(SC)c(C(C)=O)c1=S | 7% | 2% | 13% | 28% | 3% | -9% | -8% | 2.5%
COc1ccc(CNC(=O)c2cc3c(-c4ccc(Cl)cc4)nn(C)c3s2)cc1 | / | / | -24%[46.1 µM] | -2%[46.1 µM] | / | -8% | -21% | -0.2%
COC(=O)c1ccc(C(=O)OC)c(NC(=O)CN(c2ccccc2)S(=O)(=O)N(C)C)c1 | -17% | 1% | 10µM*! | ? | 0% | 2%&2% | ? | -5.2%
CCOC(=O)C1CCN(C(c2ccccc2OC)c2c(O)cc(C)n(CCOC)c2=O)CC1 (configuration not stated) | / | / | -8%[46.1 µM] | / | / | 0% | -7% | 0.6%
COc1ccc2oc(C(=O)OCC(=O)N(C)Cc3ccccc3)c(C)c2c1 | / | -9% | ? | -9% | -15% | -28% | / | /
COc1cccc(NS(=O)(=O)c2ccc3[nH]c4c(c3c2)CCCCCC4)c1 | / | / | -5%[46.1 µM] | / | / | 29% | -29% | -10%
Cc1cccc(-c2nnc(NC(=O)c3ccco3)s2)c1 | -24% | -5% | 23%[46.1 µM] | 22%[46.1 µM] | -17% | 19% | / | /
COc1ccc(S(=O)(=O)n2nc(OC(=O)c3ccco3)cc2N)cc1 | -20% | -10% | 4% | 14% | 3% | 11% | 20µM* | 13µM*
O=C(O)c1cccc(NC(=O)c2ccc3c(c2)C(=O)N(Cc2ccco2)C3=O)c1 | 2% | 0% | 1%[46.1 µM] | -4%[46.1 µM] | -15% | ? | / | /
CC1CCN(C(=O)c2ccc(N(C)S(C)(=O)=O)cc2)CC1 | 1% | 5% | 10% | -7% | 0% | 1% | 13% | 7.1%
CCOC(=O)c1c(C)n(C)c2ccc(O)c(CN(C)C)c12 | -3% | -7% | 1% | -25% | 9% | -38% | 0% | -1.1%
CCN(CC)c1ccc(NC(=O)c2ccccc2)cc1S(=O)(=O)Nc1ccccc1OC | -20% | -19% | -20% | ? | / | 16% | ? | -21%
CCOn1c(=O)c(-c2ccccc2)[n+]([O-])c2ccccc21 | 0% | 1% | 3%[46.1 µM] | ? | -8% | -6% | / | /
CCOC(=O)CSc1nnc(-c2ccoc2C)n1-c1ccc(OCC)cc1 | -24% | -5% | 2% | ? | 14% | 7% | 3% | -2.3%
COc1ccc(CC(NC(C)=O)C(=O)NC2CCN(S(=O)(=O)c3ccc(NC(C)=O)cc3)CC2)cc1 (configuration not stated) | -4% | 11% | 20%[46.1 µM] | ? | 1% | 32%[activator] | / | /
Cc1ccc(C)c(CN2C(=O)C(=O)c3ccccc32)c1 | / | / | 6%[46.1 µM] | / | / | -13% | 9% | 0.7%

Going on with the list.
SMILES | NS1 function inh | SARS PLP yeast | Lassa entry inh | Marburg entry inh | RE007 growth inh | StopGo reporter | Cruzain inh noDet | Cruzain Triton
COc1cc(/C=N/NC(=O)c2cccnc2)ccc1OCC(=O)Nc1ccccc1Cl | / | 1% | 8%[46.1 µM] | 2%[46.1 µM] | -4% | 5% | / | /
O=C(CSc1ncnc2c1nnn2Cc1ccccc1)NC1CCCCC1 | 4% | 1% | -4% | 11% | 2% | ? | / | /
CCOC(=O)c1ccc(N(CCC2CO2)S(=O)(=O)c2ccc(C)cc2)cc1 (configuration not stated) | / | / | ? | 4% | 1% | 1% | / | /
C=CCn1c(SCC(=O)c2[nH]c(C)c(C(=O)OCC)c2C)nc2scc(-c3ccc(OC)c(OC)c3)c2c1=O | 3% | -7% | -25% | ? | -1% | ? | 12% | 0.5%
COc1cc(OC)c(C(=O)OC(C)C(=O)Nc2cccc(C(F)(F)F)c2)cc1OC (configuration not stated) | 8% | 17% | -4% | ? | -17% | -26% | ? | -8.1%
C/C(=N\NS(=O)(=O)c1ccc(Br)cc1)c1ccc2c(c1)OCO2 | -32% | 1% | 6% | 15% | -10% | 65%[activator] | / | /
COc1cccc(N2CC(NC(=O)c3ccc(S(=O)(=O)N4CCCCC4)cc3)CC2=O)c1 (configuration not stated) | / | / | 0%[46.1 µM] | / | / | -27% | 9% | -2.1%
COCCn1c(SCC(=O)c2c[nH]c3ccccc23)nc2cc(C(=O)NC(C)C)ccc2c1=O | / | / | ? | / | / | -15% | -12% | 1.6%
CCOC12NC(=O)CC(=O)N1C(c1ccccc1)=CS2 (configuration not stated) | -9% | 2% | ? | 10% | 1% | 15% | -1% | -6.3%
O=C(c1ccc(NS(=O)(=O)c2ccc3[nH]c(=O)[nH]c3c2)cc1)N1CCN(c2ccccc2O)CC1 | / | 0% | -1% | 22%[46.1 µM] | 5% | -14% | / | /
COC(=O)/C(=C/Nc1cccc2ccccc12)[N+](=O)[O-] | 18% | -15% | 12% | 10% | -1% | / | -4% | -2.1%
O=C(NCc1ccc2c(c1)OCO2)Nc1ccc(Cl)cc1 | 5% | 1% | / | / | 5% | 34%[activator] | / | /
O=C(Nc1ccccn1)C1(c2ccccc2)CCCC1 | 13% | -6% | -1% | -25% | -6% | -12% | 1% | 5.9%
COc1ccc(N=Nc2cc(-c3ccccc3)ccc2O)cc1 | 2% | 3% | 1%[46.1 µM] | -3%[46.1 µM] | -5% | 3% | / | /
CCN(C(=O)CSc1nc2ccccc2n1CC(=O)N(C)C1CCCCC1)c1ccccc1 | / | / | ? | / | / | 0% | 8% | -1.0%
Cc1ccc(S(=O)(=O)N2CCN(Cc3ccsc3)CC2)cc1 | 2% | -1% | 6% | ? | -15% | ? | / | /
Cc1ccccc1C1c2[nH]c3ccccc3c2C[C@H]2C(=O)N(c3ccccc3C(=O)NCCN3CCOCC3)C(=O)N12 (some centres not stated) | 6% | -7% | / | / | -11% | -14% | / | /
Cc1cc(C)c(NC(=S)N2CCC(N(C)CC3CCCO3)CC2)c(C)c1 (configuration not stated) | -2% | 6% | 11% | 18% | -8% | -14% | 3% | -3.0%
COc1cccc(NC(=O)c2cnsn2)c1 | -10% | 6% | ? | 24% | 10%[3.69 µM] | 33%[activator] | -4% | -11%
CCCCn1c(SCC(=O)NC2CC2)nnc1-c1ccncc1 | -11% | 1% | 6% | -11%[46.1 µM] | -5% | -6% | / | /
C=C(C)COc1ccc(-c2nc(N)ncc2Oc2ccccc2OC)c(O)c1 | -56% | -4% | -22% | ? | 11% | -8% | 2% | -10%
Cc1ccccc1CN1C(=O)C2(OCCCO2)c2ccccc21 | 12% | -3% | 2% | -8% | -21% | -23% | -2% | -2.9%
N#Cc1c(N)sc2c1CCCCCC2 | -91% | -3% | 0% | 22% | -10% | 15% | 5% | -6.2%
O=C(Nc1cccc(C(F)(F)F)c1)c1cccnc1N1CCN(c2ccccc2)CC1 | 17% | -34% | ? | ? | 1% | / | ? | -5.4%
COc1ccc(NC2CCCN(C(=O)CCc3ccncc3)C2)cc1OC (configuration not stated) | 29% | -6% | / | / | 9% | 1% | / | /
CCn1c(=O)c(C(=O)CN2CCN(S(=O)(=O)c3ccc(C)cc3C)CC2)c(N)n(Cc2ccccc2)c1=O | -15% | 13% | ? | ? | 5% | -14% | -18% | -5.9%
Cc1cc(S(=O)(=O)n2ccnc2)c(Cl)cc1Cl | 4% | 1% | -14% | 3%[46.1 µM] | 1% | 1% | / | /
